TRPML1 blocker: qHTS for Inhibitors of the Human Mucolipin Transient Receptor Potential 1 (TRPML1); Mucolipin-1 (Homo sapiens), Q9GZU1; TRPML1-inducible cells, Ca2+ dye fluorescence, FDSS; hits give low values; inhibition of EC80 agonist-evoked calcium signal; activity change, negative = inhibition, % (no concentration beside the values); 390,000 tested, 0.02% active; AID 624415, 2012; in the data active means activity change below about -50%; inconclusive means about -30% to -50%; inactive means above about -30%;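 further: stimulus is agonist 54-4 at its EC80 concentration; on the % scale 0 is the no-effect control and ±100 the full control effect; compound concentration not given in the record; the text of the record puts the active cut at -80%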
Target sequence (Q9GZU1 whole entry, looked up): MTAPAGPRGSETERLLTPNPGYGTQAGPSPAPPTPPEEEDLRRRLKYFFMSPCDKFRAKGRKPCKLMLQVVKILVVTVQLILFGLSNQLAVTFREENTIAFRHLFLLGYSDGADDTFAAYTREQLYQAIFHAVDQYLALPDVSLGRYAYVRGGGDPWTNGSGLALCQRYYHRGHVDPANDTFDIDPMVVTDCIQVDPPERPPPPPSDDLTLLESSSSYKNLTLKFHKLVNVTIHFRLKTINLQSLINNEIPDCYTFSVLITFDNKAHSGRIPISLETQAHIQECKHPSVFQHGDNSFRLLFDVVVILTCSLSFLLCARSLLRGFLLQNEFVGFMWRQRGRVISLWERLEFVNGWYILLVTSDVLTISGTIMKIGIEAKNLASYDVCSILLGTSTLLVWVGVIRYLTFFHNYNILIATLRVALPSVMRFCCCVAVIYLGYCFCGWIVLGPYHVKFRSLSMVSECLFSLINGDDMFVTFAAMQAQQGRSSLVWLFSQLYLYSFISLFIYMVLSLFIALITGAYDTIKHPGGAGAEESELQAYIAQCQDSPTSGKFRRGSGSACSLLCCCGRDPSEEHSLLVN
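Calcium fluorescence in TRPML1-DL cells induced overnight with Tet: a 110 s read after compound pin addition, then a 110 s antagonist read after challenge with 54-4 at 4 uM final (EC80).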
PINK1 expr mod: A Quantitative High throughput Screen to Identify Chemical Modulators of PINK1 Expression | PINK1 immunofluorescence, high-content cytometry, 24 h | Potency, µM (top dose mostly 76.6 µM), for the others: at the top dose activation (PINK1 increase), actives largely listed as activators | 410,000 tested, 0.2% active | AID 624263, 2012; active = well fitted activation curve with a large enough effect; inconclusive = small, poorly fitted or top-dose-only effect; inactive = flat fitted curve, though single readings scatter; cell line not stated here;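 further: potency means the concentration at half of the fitted maximal effect; % of control where 0% means no effect; nearly all actives have a fitted effect of over 65% in size; a mitochondrial uncoupler was the plate control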
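Readout is PINK1 immunofluorescence, quantified alongside mitochondrial, cell and nuclear markers by laser-scanning microplate cytometry. Cells from a stable line were exposed to compound titrations (5 concentrations) for 24 hours, with CCCP controls.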
TRPML1 ag: qHTS for Agonists of the Human Mucolipin Transient Receptor Potential 1 (TRPML1) | 410,000 tested, 0.12% active | activation, % (concentration not given with the values) | TRPML1-expressing cells, Ca2+ dye fluorescence, FDSS; host cell line not named in the record; reference of the full effect not given here; in the data active = activation above about 50%; inconclusive = about 30% to 50%; inactive = below about 30%; further: 0% is about no effect; the text of the record puts the active cut at 80%
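In this qHTS format, compounds were pin-transferred onto Ca8-dye-loaded TRPML1-DL cells induced with Tet overnight, and intracellular Ca2+ fluorescence was recorded kinetically for 110 s after a 10 s baseline. A subsequent 4uM final 54-4 (EC80) addition followed by a second 110 s read served as the antagonist phase.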
D2 ag: Beta-Arrestin HTS for Positive Allosteric Modulators of the Human D2 Dopamine Receptor: Agonists | D(2) dopamine receptor (Homo sapiens), P14416 | DiscoveRx PathHunter D2 beta-arrestin, luminescence, 90 min; 100% = 57 uM dopamine signal | activation, % (test concentration not listed) | 360,000 tested, 0.084% active; in the data active = activation above about 40%; inconclusive = about 15% to 40%; inactive = below about 15%; further: compound concentration not given in the record; the text of the record calls up to 30% inactive
Target sequence (P14416 whole entry, looked up): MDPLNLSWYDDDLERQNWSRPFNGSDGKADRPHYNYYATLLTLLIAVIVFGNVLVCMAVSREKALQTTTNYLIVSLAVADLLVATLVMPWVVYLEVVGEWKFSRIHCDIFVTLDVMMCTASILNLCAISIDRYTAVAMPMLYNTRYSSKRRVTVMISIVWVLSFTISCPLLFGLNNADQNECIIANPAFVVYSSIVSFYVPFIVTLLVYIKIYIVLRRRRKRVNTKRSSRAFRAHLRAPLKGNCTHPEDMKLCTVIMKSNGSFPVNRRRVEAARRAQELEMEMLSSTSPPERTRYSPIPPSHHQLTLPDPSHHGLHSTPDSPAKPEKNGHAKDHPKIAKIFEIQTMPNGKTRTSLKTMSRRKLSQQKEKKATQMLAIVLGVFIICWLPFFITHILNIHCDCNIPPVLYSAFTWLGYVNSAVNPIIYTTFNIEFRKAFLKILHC
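DiscoveRx PathHunter D2 beta-arrestin cells (2,100/well) attached overnight, then compound-stimulated 90 min at 37 C in HBSS/10 mM HEPES/0.1% Tween-20 buffer; beta-galactosidase complementation read by luminescence after 1 h at ambient temperature. Dopamine 57 uM final (EC100) as control.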
Six1-Eya2 inh: qHTS Assay for Inhibitors of the Six1/Eya2 Interaction; Homeobox protein SIX1 (Homo sapiens) + Protein phosphatase EYA2 (Homo sapiens), …; AlphaScreen GST-Six1/His-Eya2 binding, biochemical; hits give low values; control for the full effect not named in the record; activity change, % (concentration not given with the values); 360,000 tested, 0.56% active; in the data active = activity change below about -65%; inconclusive = about -30% to -65%; inactive = above about -30%; further: on the % scale 0 is the no-effect control and ±100 the full control effect
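Six1/Eya2 binding was read as AlphaScreen signal after compounds were pinned into GST-Six1 plus His-tagged Eya2 (5X stock 250/500 nM) in pH 8.0 Tris/NaCl/TCEP buffer, beads added, then incubated 1 h, 37 C, dark.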
D2 potentiator: Beta-Arrestin HTS for Positive Allosteric Modulators of the Human D2 Dopamine Receptor: Potentiators; potentiation, % (no concentration beside the values); DiscoveRx D2 beta-arrestin cells, luminescence, 90 min; 100% = 57 uM dopamine signal; D(2) dopamine receptor (Homo sapiens), P14416; AID 624464, 2012; 360,000 tested, 0.23% active; active = potentiation of 50% or more; inconclusive = 30% to 50%; inactive = 30% or less;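 further: compound concentration not given in the record; tested on top of an EC20 dose of dopamine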
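D2 cells co-treated with compound plus 50 nM dopamine (EC20) for 90 min at 37 deg C to detect potentiation. Beta-arrestin recruitment was read as enzyme-fragment luminescence after 1 h at ambient temperature. Full response was set by 57 uM dopamine.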
Starred values were filed as active, the others as inactive; . = no result given; [ ] = dose if it differs, or a comment. Random draw from the library; 1% or so of the library scored in one or more.

SMILES	TRPML1 blocker	PINK1 expr mod	TRPML1 ag	D2 ag	Six1-Eya2 inh	D2 potentiator
CC(C)N(C1=N/C(=C\c2ccco2)C(=O)N1c1ccccc1)C(C)C	19	17%	1.8	-1.3	16	0
COc1cc(C(C2C(=O)CC(C)(C)CC2=O)C2C(=O)CC(C)(C)CC2=O)cc(OC)c1OC	8	1.2%	-1.0	-0.6	-3	-6
COc1c(N2CCN(C(=S)Nc3ccccc3F)C(C)C2)c(F)cc2c(=O)c(C(=O)O)cn(C3CC3)c12 (stereo unspecified)	-12	23%	-1.3	1.1	-5	-6
CCOC(=O)C1(Cc2cccc(OC)c2)CCN(Cc2cccc(OC)c2OC)CC1	-2	13%	0.4	-3.2	-1	-16
CC(C)(C)c1ccc(-c2n[nH]c(=S)n2/N=C/c2ccncc2)cc1	26	1.9%	3.3	-3.8	-9	-38
C[C@@H]1CN([C@@H](C)CO)C(=O)CCCn2cc(nn2)CO[C@H]1CN(C)S(=O)(=O)c1cccs1	2	1.9%	-0.3	-10	2	2
Cc1ccc2nc(CSc3nc(C)cc(C)c3C#N)[nH]c2c1	5	5.3%[38.3 µM]	1.1	-1.3	1	-21
CCC1(c2ccccc2)NC(=O)N(CC(=O)Nc2ccc(S(=O)(=O)N3CC(C)CC(C)C3)cc2)C1=O (stereo unspecified)	12	2.2%	0.4	0.6	-9	9
CCCN(CC(=O)Nc1ccc(F)c(F)c1F)C(=O)c1ccc(=O)n(Cc2ccccc2)n1	47	0.9%	0.9	-2.7	7	9
Cc1ccccc1OC(=O)c1nc(SCc2ccccc2F)ncc1Cl	6	2.3%	2.9	.	.	.
CCCCOc1cccc(-c2nnc(N)s2)c1	-11	1.4%	0.9	0.9	-1	6
CCOc1ccccc1NC(=O)C(Sc1nnc2ccccn12)c1ccccc1 (stereo unspecified)	3	-2.1%	2.3	0.7	1	-13
COc1ccc(N2Nc3n[nH]c(N)c3N2)cc1	5	-2.5%	-0.7	-7.7	-12	-44
O=S(=O)(Nc1ccc(Cl)cc1)c1ccc(N2CCOCC2)c(NC(=S)NC2CC2)c1	5	-0.2%	0.3	-1.2	-1	-2
NS(=O)(=O)c1ccc(CCNS(=O)(=O)c2cccs2)cc1	9	3.0%	-0.2	-3.9	3	15
CCc1nc(SCC(=O)N2CC(=O)Nc3ccccc32)c2c(C)c(C)sc2n1	-2	2.7%[38.3 µM]	1.0	-0.2	0	-10
O=C(CN1C(=O)c2ccc([N+](=O)[O-])cc2C1=O)NCc1ccco1	6	0.5%	-0.7	8.4	4	22
CC(C)S(=O)(=O)N1CCCC(c2cc(C(=O)NCc3cccnc3)no2)C1 (stereo unspecified)	.	2.9%	-0.4	-6.1	1	-2
O=C1OC(c2cccs2)=N/C1=C/c1ccc(-c2cccc(C(=O)O)c2)o1	-15	2.2%	3.7	-5.9	-20	-8
Cc1cc(C(=O)N/N=C/c2c(C)nn(-c3ccccc3)c2Cl)n[nH]1	9	0.1%	1.5	-2.7	-3	-6
CCOC(=O)Nc1ccc(NS(=O)(=O)c2ccc(C)cc2)cc1	7	11%	2.2	-0.1	3	6
CCOC(=O)C(CC1=CS(=O)(=O)c2ccc(Cl)cc21)(NC(C)=O)C(=O)OCC	-11	-0.7%	-0.6	-4.3	4	0
C=CCN(CC=C)CC(=O)Nn1c(C)ccc1C	-4	2.1%	0.0	-4.7	-28	-6
Cn1c(SCC(=O)C(C)(C)C)nnc1-c1ccc(F)cc1	-8	-0.5%	-0.2	-2.2	0	-5
NC(=O)c1csc(-c2ccc(CO)o2)n1	.	1.0%	-0.3	-3.1	6	-6
C=CCSc1nc(Oc2ccccc2)c2sccc2n1	11	29%	3.0	0.1	51	5
CNc1cncc(-c2cccc(C(C)=O)c2)n1	-8	-1.4%	-0.3	-3.9	-3	-16
COc1cc(Br)cc(/C=N/c2ncn[nH]2)c1O	-8	9.7%[38.3 µM]	-0.3	-1.9	-9	-11
CCOC(=O)c1ccc(NC(=O)CSc2nc3cc4ccccc4cc3[nH]2)cc1	11	2.8%	0.3	.	.	.
c1ccc(OCc2nc(-c3cccs3)no2)cc1	-15	14%[38.3 µM]	1.3	1.3	22	9
Cc1c(C(=O)NCc2ccc([N+](=O)[O-])cc2)sc(=O)n1Cc1ccc2c(c1)OCO2	.	-1.2%	14	0.8	-10	-4
CSc1ccc(S(=O)(=O)N2CCN(Cc3ccc4c(c3)OCO4)CC2)cc1	-2	1.0%	1.3	-3.5	-21	-1
CCOc1ccc(S(=O)(=O)NCC(c2ccc(N(C)C)cc2)N2CCCC2)cc1 (stereo unspecified)	10	-2.3%	-0.1	.	.	.
OC12CC3C[C@H](C1)C(N1CCOCC1)[C@@H](C3)C2 (stereo partly specified)	.	-0.9%	.	0.2	-1	-3
CCO[C@@H]1OC(C(=O)O)=C[C@H](C2CC2)[C@H]1CCCO	-1	3.8%	0.0	0.7	-5	-8
Cc1cc(C)c(NC(=O)NC(=O)c2ccc(F)cc2)c(C)n1	2	0.5%	1.2	-0.7	6	-6
Clc1cccc(-n2ncc3c(NCCCn4ccnc4)ncnc32)c1	-13	0.8%	-0.8	.	.	.
Cc1nn(C2CCS(=O)(=O)C2)c(C)c1CN(C)C(=O)c1ccc(S(=O)(=O)N(C)C)cc1 (stereo unspecified)	5	0.8%	0.3	7.7	0	0
Cc1ccccc1C(=O)Nc1ccc(N2CCN(C)CC2)nc1	-3	2.6%	1.0	1.4	7	1
O=C(Nc1ccccn1)C(NS(=O)(=O)c1cccc2nsnc12)c1ccccc1 (stereo unspecified)	-10	-1.1%	2.7	-2.2	-4	-14
Cc1ccc(S(=O)(=O)n2nccc2-c2c(-c3ccccc3)noc2C)cc1	-13	2.5%	23	-0.8	2	-5
COc1cc([N+](=O)[O-])ccc1NC(=O)C1CCCN(S(C)(=O)=O)C1 (stereo unspecified)	1	0.7%	-0.2	-2.7	3	-1
Cc1ccc(CN(C)C(=O)c2cccc(S(=O)(=O)N3CCc4ccccc4C3)c2)o1	-5	0.0%	3.4	8.2	-14	-1
Cc1ccc(C)c(NC(=O)c2ccc(N(C)S(C)(=O)=O)cc2)c1	0	-1.0%[38.3 µM]	-0.4	-1.2	0	-8
COc1cccc(CNc2nc3nc(C)c(Cl)c(C)n3n2)c1	-8	-2.1%	1.5	-0.9	-2	-22
Cc1ccc(CN2C(=O)CCC2C(=O)NCCN(CC(C)C)CC(C)C)cc1 (stereo unspecified)	21	-0.4%	-0.7	-1.3	1	19
CCC(=O)N1c2ccc(S(=O)(=O)N3CCN(c4ccccc4)CC3)cc2CC1C (stereo unspecified)	-11	-0.4%	-0.3	.	.	.
O=C(Nc1nc2c(F)cccc2s1)c1ccco1	-1	6.4%	1.3	0.7	26	1
O=C(NCc1cccs1)C1CCC(CNS(=O)(=O)c2ccccc2)CC1 (stereo unspecified)	-1	-0.5%	1.2	-1.8	2	-4
CCC(CC)c1nnc(NC(=O)c2nc3nc(C)cc(C)n3n2)s1	-12	-0.3%	-0.4	-0.5	2	12
CC(=O)Nc1nonc1-c1nc2ccccc2n1Cc1ccccc1Br	20	5.6%	3.0	.	.	.
Cc1ccc(SCC(=O)Nc2cccc(C)c2)cc1	-26	0.0%	2.6	-2.5	15	-9
O=C(CCn1c(=O)oc2ccccc21)Nc1ccccc1	-11	-0.7%	1.2	4.8	2	-12
Cc1noc(/C=C/c2nn(C)cc2Cl)c1[N+](=O)[O-]	17	0.3%	2.1	1.1	11	-14
Cc1ccc(-n2c(SCC(=O)Nc3ncc(Cl)cc3Cl)nc3ccccc32)cc1	-9	7.6%	1.5	11	-4	-5
O=S1(=O)N=C(N2CCCc3ccccc32)c2ccccc21	8	-1.6%	-1.4	-2.8	-10	-1
CCC(=O)N1CCc2cc(Br)cc(S(=O)(=O)N3CCCC(C(=O)NCc4ccc(C)cc4)C3)c21 (stereo unspecified)	-7	2.5%	-0.1	.	.	.
COc1ccc(/C=C(/NC(=O)c2ccccc2)C(=O)N/N=C/c2cccs2)cc1OC	33	-0.4%[38.3 µM]	1.4	0.2	-3	-11
NC(=O)c1ccc(NC(=O)COC(=O)c2ccccc2SCC(=O)N2CCCC2)cc1	5	1.4%	-0.3	-0.2	-11	-4
Cc1csc(Sc2ccc([N+](=O)[O-])cc2C(=O)OCC(=O)NC(=O)NC(C)(C)C)n1	-20	3.2%	1.4	-2.5	-19	13

(continued)
SMILES	TRPML1 blocker	PINK1 expr mod	TRPML1 ag	D2 ag	Six1-Eya2 inh	D2 potentiator
CCOc1ccc(NC(=O)CC2Nc3ccccc3NC2=O)cc1 (stereo unspecified)	2	-0.5%	2.9	3.9	4	-4
Cc1ccc(CN(C(=O)c2ccc(Cl)c([N+](=O)[O-])c2)C2CCS(=O)(=O)C2)o1 (stereo unspecified)	29	1.0%	0.7	6.5	-1	-1
O=C(CC(Sc1n[nH]c(-c2ccccc2)n1)c1ccccc1)NCc1ccccc1 (stereo unspecified)	-9	20%	0.8	-4.6	-11	-2
CCN(C(=O)Cn1cnc2c(nc3n2CCCCC3)c1=O)c1cccc(Cl)c1	14	2.6%	-0.3	-0.2	0	-4
CCOc1ccc2c(c1)n(CO)c(=S)n2CO	-12	-2.2%	-0.2	3.3	-2	11
CCOC(=O)c1sc(NC(=O)c2cc3ccccc3o2)nc1C	-2	6.3%	-1.4	-3.5	0	-20
Cc1nnc(SCC(=O)O)s1	0	3.4%	-0.2	-3.4	18	9
COC(=O)c1ccc(N2C(=O)CC(Sc3n[nH]c(C)n3)C2=O)cc1 (stereo unspecified)	0	1.1%	-0.4	-2.1	-3	24
CCOC(=O)N1CCC(NC(=O)CCc2c(C)nc3c(c(C)nn3C(C)(C)C)c2C)CC1	-8	1.0%[38.3 µM]	4.2	1.1	-1	4
COc1ccc(-n2cc(-c3ccccc3)c3c(NC4CCCC4)ncnc32)cc1	-13	3.0%	1.1	.	.	.

Retrieved by compound from above (3):
SMILES	TRPML1 blocker	PINK1 expr mod	TRPML1 ag	D2 ag	Six1-Eya2 inh	D2 potentiator
CCOc1ccc2c(c1)n(CO)c(=S)n2CO	-12	-2.2%	-0.2	3.3	-2	11
CCOC(=O)N1CCC(NC(=O)CCc2c(C)nc3c(c(C)nn3C(C)(C)C)c2C)CC1	-8	1.0%[38.3 µM]	4.2	1.1	-1	4
COC(=O)c1ccc(N2C(=O)CC(Sc3n[nH]c(C)n3)C2=O)cc1 (stereo unspecified)	0	1.1%	-0.4	-2.1	-3	24

Screening data: PubChem, National Center for Advancing Translational Sciences (NCATS)
